Assay outcomes (PubChem BioAssay)
UCH37 inh = human UCH37 deubiquitinating enzyme inhibition | Q9Y5K5 | purified proteasome/UCH37, Ub-AMC cleavage fluorescence | inhibition, % (no concentration beside the values) | actives 0.33% (n = 330,000) | AID 588478;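 active = mean of two replicates above 20%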;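 also: 0% = compound-free wells with enzyme and 100% = wells lacking proteasome; stock transfer was 100 nL into about 20 µL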
Target sequence (Q9Y5K5 whole entry, looked up): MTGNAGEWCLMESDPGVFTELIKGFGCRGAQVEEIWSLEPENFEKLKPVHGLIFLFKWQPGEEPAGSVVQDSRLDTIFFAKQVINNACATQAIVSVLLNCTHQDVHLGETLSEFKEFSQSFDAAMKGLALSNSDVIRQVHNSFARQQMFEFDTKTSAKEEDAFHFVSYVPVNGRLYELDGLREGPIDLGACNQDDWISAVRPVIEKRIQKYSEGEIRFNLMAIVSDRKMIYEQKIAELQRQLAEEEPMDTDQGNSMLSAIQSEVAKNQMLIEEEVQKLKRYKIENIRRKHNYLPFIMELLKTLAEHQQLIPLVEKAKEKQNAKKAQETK
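Material: Human UCH37 enzyme supplied as purified proteasome complex | Schedule: 30 min compound-proteasome preincubation then 25 min substrate reaction, room temperature | Detection: AMC fluorescence from Ub-AMC cleavage, excitation 355 nm, emission 460 nm | Benchmarks: Wells without proteasome as full block, compound-free enzyme plus substrate as uninhibited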
MLL AF4-AF9 inh = MLL-AF4/AF9 protein interaction inhibition; P42568; AlphaScreen, biotin-AF4 peptide binding to FLAG-AF9; inhibition, % at 10 µM; actives 0.47% (n = 350,000);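 active = every replicate reaching a set inhibition limit, whatever the replicate mean, cut at about 25% in these data; inconclusive = mean inhibition reaches that limit but some replicates miss it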;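 also: 0% = plate neutral control median and 100% = total signal loss; the record names both 10 and 1 µM as test concentration; the first replicate is given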
Target sequence (P42568 whole entry, looked up): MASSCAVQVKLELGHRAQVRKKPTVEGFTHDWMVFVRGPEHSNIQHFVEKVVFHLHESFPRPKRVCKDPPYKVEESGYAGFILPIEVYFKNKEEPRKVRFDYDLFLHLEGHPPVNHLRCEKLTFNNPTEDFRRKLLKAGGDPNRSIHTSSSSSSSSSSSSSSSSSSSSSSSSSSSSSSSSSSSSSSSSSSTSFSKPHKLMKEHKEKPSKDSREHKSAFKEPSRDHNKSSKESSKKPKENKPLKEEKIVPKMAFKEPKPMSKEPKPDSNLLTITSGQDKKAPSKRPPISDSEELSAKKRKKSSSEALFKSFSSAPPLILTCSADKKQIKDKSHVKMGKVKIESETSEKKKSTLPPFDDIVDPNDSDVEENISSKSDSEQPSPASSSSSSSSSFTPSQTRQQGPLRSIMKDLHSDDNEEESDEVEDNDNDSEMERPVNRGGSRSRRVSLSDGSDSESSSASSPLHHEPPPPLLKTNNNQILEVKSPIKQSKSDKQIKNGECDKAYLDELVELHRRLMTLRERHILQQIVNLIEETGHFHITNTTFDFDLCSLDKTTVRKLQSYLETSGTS
Ecoli rRNA inh = selective bacterial rRNA inhibition in E. coli; E. coli WT GFP vs humanized-ribosome RFP mutants, fluorescence, 24 h; active compounds read low; DMSO median 0, no signal -100; GFP signal change (wild-type ribosome), % (concentration not given with the values); actives 1.6% (n = 350,000); AID 720706;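 active = significant combined selectivity score with lowered wild-type GFP, culture density cut under 30%, mutant RFP and density less affected; inactive = any of these conditions unmet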; also: one replicate is shown; some compounds called inactive have numbers as strong as hits
E coli growth = blocks Escherichia coli growth; AID 1053175; OD600 absorbance (test concentration not listed); OD600, 23 h; active compounds read low; actives 0.21% (n = 330,000);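 active = OD600 absorbance below the run mean of sample wells minus 3.6 SD, in any replicate, cut at about 0.56 in these data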;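 also: stock transfer was 300 nL into about 60 µL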
A1 inh = inhibitors of the anti-apoptotic protein A1, read as caspase activation. actives 0.066% (n = 330,000). caspase activation, % (no concentration beside the values). MEF A1-2A-BIM cells, Caspase-Glo 3/7 luminescence, 3 h; percent of clofoctol response, vehicle zero;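 active = over half of replicate activation scores above 10%, or exactly half above 10 with the replicate mean above 10; inconclusive = replicate mean below 10 yet half the replicates above 10; inactive = over half of replicates below 10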;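 also: wells of about 30 µL received 50 nL stock; many hits fall short of the cut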
T cruzi repl = blocks replication of Trypanosoma cruzi; T. cruzi beta-gal in NIH3T3, luminescence, 90 h; inhibition, % (concentration not given with the values); actives 1.4% (n = 300,000);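 active = mean inhibition across valid replicates above about 55%, limit read from the data; inconclusive = mean below that limit but half or more replicates reach it; inactive = mean below it, under half of replicates reach it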;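 also: signal also drops with host cell toxicity which is not excluded here; 0% = plate median of DMSO wells and 100% = zero luminescence signal; higher percent means less beta-gal luminescence so fewer parasites; stock transfer was 50 nL into about 50 µL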
Beta cell apopt = beta cell apoptosis inhibition; INS-1E cytokine-induced death, ATP luminescence, 48 h; percent of positive-control rescue, neutral wells zero; protection from apoptosis, % (concentration not given with the values); actives 0.8% (n = 300,000);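 active = all replicates at 75% or more, or half of them and the mean; inconclusive = half reach 75% but not the mean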;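 also: 0% = cytokine-treated negative control wells and 100% = positive control rescue; higher means more ATP so stronger rescue from cytokine killing; wells of about 40 µL received 100 nL stock; the first replicate is given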
FGF22 binding = shifts melting point of recombinant human FGF22; Q9HCT0; recombinant FGF22 thermal shift, SYPRO orange fluorescence; percent of sucrose octasulfate shift, DMSO zero; calls only at 9.99 µM; actives 1.5% (n = 340,000); AID 651658;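 active = melting point raised past a set limit in the mean and every replicate; inconclusive = no clear call; three in four hits are not shown here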
Target sequence (Q9HCT0 whole entry, looked up): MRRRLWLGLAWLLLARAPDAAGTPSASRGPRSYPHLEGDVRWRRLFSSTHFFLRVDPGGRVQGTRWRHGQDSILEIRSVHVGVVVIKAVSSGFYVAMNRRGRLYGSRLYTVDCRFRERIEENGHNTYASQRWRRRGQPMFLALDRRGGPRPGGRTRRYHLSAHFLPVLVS
Ecoli rRNA inh OD600 = also measured in Ecoli rRNA inh; calls as there; OD600 change, %; measured here: OD600 growth;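 optical density of the mix in the first replicate; 0 = DMSO median and -100 = no signal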
Ecoli rRNA inh RFP = second read-out of Ecoli rRNA inh, no call of its own (marks repeat the call); RFP signal change, %; measured here: RFP humanized mutant strains;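 first replicate; 0 = DMSO median and -100 = no signal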
Starred values were filed as active, the others as inactive; i = inactive; ? = inconclusive; nt = no result given. This is a subset (hit frequency here may not be typical).

SMILES	UCH37 inh	MLL AF4-AF9 inh	Ecoli rRNA inh	Ecoli rRNA inh OD600	Ecoli rRNA inh RFP	E coli growth	A1 inh	T cruzi repl	Beta cell apopt	FGF22 binding
N=c1c2c(n(Cc3ccc(Cl)cc3)c3c1CCC3)CCC2	4.2	2.5	-52.5*	-33.2*	-16.2*	0.695	-0.3	79.4*	52.3	i
CN(C(=O)c1ccc(NC(=O)Cc2cccc(NC(=O)C3CCCN(C(=O)C4CCCC4)C3)c2)cc1)C1CC1 (stereo not given)	1.5	-3.1	-1.3	-0.8	3.9	0.68	nt	nt	nt	i
COc1ccc(C(=O)CC(=O)c2ccc(OC)cc2)cc1	-18.2	0.1	-4.2	3.4	-3.3	0.669	-0.5	-11.5	-1.1	i
COC(=O)c1ccc(N(CC(=O)NC2CCCC2)C(=O)CNC(=O)c2ccco2)cc1	1.5	nt	nt	nt	nt	0.734	-0.5	-8.0	-4.9	nt
COc1cccc(-c2nnc(NC(=O)CCS(=O)(=O)c3ccc(C)cc3)o2)c1	5.1	-0.1	4.2	-0.9	-2.2	0.71	0.9	-9.7	nt	i
O=c1c2ccccc2nc(-c2ccco2)n1CCCn1ccnc1	4.0	nt	nt	nt	nt	0.707	0.4	3.5	6.0	nt
Cc1sc2ncnc(N(C)Cc3cccs3)c2c1C	-0.4	nt	nt	nt	nt	0.731	-0.6	-1.0	3.9	nt
CC(Nc1nc(N2CCCC2)nc2ccccc12)c1ccccc1 (stereo not given)	-15.6	nt	nt	nt	nt	0.681	-0.8	58.1*	14.7	nt
COc1ccc(CNC(=O)C(c2ccco2)N(C(=O)CNS(=O)(=O)c2ccccc2)c2ccccc2C)cc1 (stereo not given)	3.1	nt	nt	nt	nt	0.657	-0.3	19.3	8.9	nt
COC(=O)N/N=C/c1cc(Br)ccc1O	nt	2.9	6.5	6.3	0.3	nt	0.0	-7.5	2.3	i
COc1ccccc1CNS(=O)(=O)c1cccc2nsnc12	-2.3	3.1	-0.3	-2.6	-1.2	0.7	0.0	14.4	-4.1	i
COC(=O)c1nc(Cl)c(Cl)c(N)c1Cl	1.7	-1.8	-0.4	-4.4	-6.4	0.688	-0.4	-11.0	-1.8	i
C=CCn1c(O)c(C(CC)=Nc2ccccc2NC(=O)CC)c(=O)[nH]c1=O	2.5	nt	nt	nt	nt	0.733	0.9	-11.4	-4.9	nt
CCSc1ccccc1C(=O)NCCc1ccccc1	-2.1	-2.3	8.4	8.2	2.6	0.654	0.2	-4.4	-3.0	i
COc1ccc(C(O)Cc2nccn2C)cc1 (stereo not given)	3.0	-1.2	3.0	3.4	-2.0	0.636	3.2	-11.9	nt	i
O=C(O)C1C2C=CC(C2)C1C(=O)NCCCN1CCCC1=O (stereo not given)	1.9	-1.8	9.7	11.1	1.3	0.711	0.0	-18.8	-1.4	i
CCOc1cccc(Nc2cc3n(c(=O)n2)CCc2cc(OC)c(OC)cc2-3)c1	-70.2	nt	nt	nt	nt	0.701	0.8	-4.0	7.9	nt
CCCS(=O)(=O)N1CCC(C(=O)NCCCOC(C)C)CC1	1.5	nt	nt	nt	nt	0.694	-0.2	-8.0	-10.2	nt
C=C1CCN([C@@H](C)C(=O)NCc2cc(OC)c(OC)c(OC)c2)S(=O)(=O)c2ccccc21	0.5	-8.0	11.3	2.3	14.2	nt	1.6	-7.6	-0.6	i
COc1cc(S(=O)(=O)NCc2cccnc2)ccc1F	1.8	nt	nt	nt	nt	0.688	-1.4	-6.9	nt	nt
NC(=S)NN=C(c1ccc(Br)cc1)C1CC1	1.7	-2.4	-3.2	7.5	2.8	0.724	nt	nt	nt	i
O=C(CCn1c(=O)oc2ccccc21)Nc1ccon1	5.6	nt	nt	nt	nt	0.69	-0.2	-2.0	0.4	nt
Cn1c(-c2cccc([N+](=O)[O-])c2)[n+](C)c2ccccc21	-2.7	-0.9	31.3	23.1	3.4	0.669	0.5	-9.9	3.2	i
O=C(CSC(=S)N1CCCC1)NCCc1ccccc1	5.3	-0.2	-2.0	-0.6	-0.1	0.696	-0.5	-12.7	-6.8	i
COc1ccc(-c2cc(C(=O)NCCCN3CCOCC3)no2)cc1	-1.7	0.9	2.6	-2.7	-1.2	0.654	1.5	-7.5	2.3	i
CCOc1ccc(C2NC(=O)c3ccccc3O2)cc1OC (stereo not given)	-1.3	-3.1	10.9	0.2	1.2	0.671	0.5	-0.7	-4.1	i
CC(C)(C)n1nnnc1CN1CCN(C(c2ccccc2)c2ccccc2)CC1	3.3	nt	nt	nt	nt	0.688	-0.4	15.0	1.3	nt
O=C1NC(=O)C(c2ccccc2)(c2ccc(O)cc2)N1 (stereo not given)	5.2	-9.6	2.0	2.2	-1.0	0.698	1.7	nt	-4.5	i
CCn1ccnc1CN1CCCC(C(=O)c2ccc3c4c(cccc24)CC3)C1 (stereo not given)	-44.3	11.9	-47.5	-75.7	-11.3	0.696	0.9	22.7	0.2	nt
CCOc1cc(/C=C/c2cc(C(=O)O)c3ccccc3n2)ccc1OC	2.9	3.7	16.0	1.9	9.5	nt	-0.3	-14.0	-0.9	i
Cc1ccc(CCNC(=O)CS(=O)Cc2nc(-c3ccccc3F)oc2C)cc1 (stereo not given)	0.5	-5.2	-2.1	-4.5	0.9	0.647	0.9	8.9	-5.0	i
CC1CCC(NC(=O)CN2C(=O)c3cccnc3Oc3ccc(Cl)cc32)CC1 (stereo not given)	2.3	-3.0	1.1	-1.5	-1.0	0.684	-1.8	-5.1	1.7	i
CC(C)(C)C(=O)Nc1sc(-c2ccccc2)cc1C(=O)O	3.3	-13.1	-2.5	-0.4	-4.8	0.636	-6.9	-9.9	2.9	nt
CCc1nnc(NC(=O)CCCSc2nc3ccccc3[nH]2)s1	4.5	-0.7	-19.6	-13.1	-1.0	0.667	-0.1	16.9	-0.7	i
O=C(NCc1cccs1)c1ccc(S(=O)(=O)N2CCOCC2)cc1	-1.0	-1.3	10.8	-5.0	-2.1	0.699	-0.3	-12.8	8.2	nt
COc1cc(/C=C2\NC(=S)N(C)C2=O)ccc1OCc1cccc(F)c1	2.8	1.0	8.7	23.4	0.6	0.683	-0.1	-12.2	-7.2	i
CCOc1ccc(C(=O)NCC(=O)NCC(c2ccc(OC)cc2)N2CCCC2)cc1 (stereo not given)	-1.5	15.8	8.2	4.6	-2.9	0.625	0.0	-13.9	3.0	i
CCOC(=O)C1CCN(C(=O)c2ccc(OCC(=O)Nc3ccc(OCC)cc3)c(OC)c2)CC1	-1.5	-14.0	-7.0	-5.6	1.3	0.677	-0.4	-2.8	-0.5	i
Cc1nc(N2CCN(c3ccccc3)CC2)[nH]c(=O)c1C	4.2	0.9	14.9	10.5	4.9	0.648	?	-4.8	-1.0	i
CCN(CC)S(=O)(=O)c1ccc(=O)n(CC(=O)N2CCCc3cc(C)ccc32)c1	-0.2	0.2	-3.0	-4.2	4.6	0.703	0.1	nt	-8.5	i

4 entries from above, ordered by SMILES length, low to high:
SMILES	UCH37 inh	MLL AF4-AF9 inh	Ecoli rRNA inh	Ecoli rRNA inh OD600	Ecoli rRNA inh RFP	E coli growth	A1 inh	T cruzi repl	Beta cell apopt	FGF22 binding
COc1ccccc1CNS(=O)(=O)c1cccc2nsnc12	-2.3	3.1	-0.3	-2.6	-1.2	0.7	0.0	14.4	-4.1	i
O=C(O)C1C2C=CC(C2)C1C(=O)NCCCN1CCCC1=O (stereo not given)	1.9	-1.8	9.7	11.1	1.3	0.711	0.0	-18.8	-1.4	i
COc1ccc(-c2cc(C(=O)NCCCN3CCOCC3)no2)cc1	-1.7	0.9	2.6	-2.7	-1.2	0.654	1.5	-7.5	2.3	i
C=C1CCN([C@@H](C)C(=O)NCc2cc(OC)c(OC)c(OC)c2)S(=O)(=O)c2ccccc21	0.5	-8.0	11.3	2.3	14.2	nt	1.6	-7.6	-0.6	i

More results
SMILES	UCH37 inh	MLL AF4-AF9 inh	Ecoli rRNA inh	Ecoli rRNA inh OD600	Ecoli rRNA inh RFP	E coli growth	A1 inh	T cruzi repl	Beta cell apopt	FGF22 binding
CCc1nnnn1-c1ccc([N+](=O)[O-])cc1C	4.2	-1.6	9.1	22.4	1.0	0.673	-0.5	-3.3	-0.3	i
CN1CCN(C2=C(Cl)C(=O)c3ccccc3C2=O)CC1	96.7*	12.5	-5.1	-5.9	11.4	0.64	nt	nt	nt	i
CCSc1nnc(NC(=O)c2ccc(C)cc2)s1	2.5	nt	nt	nt	nt	0.709	-5.5	4.4	-8.4	nt
Cc1cccc(NC(=O)c2cccc(S(=O)(=O)N3CCCC3)c2)n1	-1.6	3.1	1.2	0.9	-1.5	0.691	-1.4	-2.5	-0.4	i
COc1ccc(-n2ccnc(SCC(=O)NC3CCCC3)c2=O)cc1	-22.2	-3.0	6.1	11.3	1.6	0.634	?	-20.5	-15.9	i
C=CC[C@@H](CC(=O)N[C@H](CO)Cc1ccccc1)C(=O)N[C@H](COC(=O)[C@@H](CC=C)Cc1ccc(F)cc1)C(C)(C)C	2.5	nt	-6.3	4.9	0.3	nt	-0.8	nt	1.1	i
O=C(Nc1ccc(Br)cc1)C1CCN(c2cnccn2)CC1	-81.9	1.1	-4.9	-10.2	-1.9	0.647	0.5	22.2	-2.6	i
C/C(=N\O)C(C)Oc1ccc(Cl)cc1 (stereo not given)	nt	-0.9	5.0	7.5	3.3	nt	0.1	-4.6	-4.2	i
COc1ccc(C(=O)Nc2ccc(F)cc2F)cc1OC	3.5	nt	nt	nt	nt	0.672	-1.8	-5.8	4.9	nt
CCc1ccc(C(=O)O)cc1	3.7	1.1	13.9	16.2	2.3	0.681	2.0	-25.5	0.9	i
Cc1nn(C)c(Oc2ccccc2)c1CCNC(=O)CCl	3.5	-1.1	6.5	4.2	1.5	0.708	0.3	-4.9	2.6	i
Cc1ccc(CCNC(=O)c2nnc(CS(=O)(=O)c3ccccc3)o2)cc1	2.0	-2.2	-5.9	-6.4	0.2	0.728	0.1	0.8	0.0	i
O=C(NNc1c(Cl)cc(Cl)cc1Cl)C1CCC1	3.3	-34.6	-1.5	0.7	-2.3	0.639	1.2	3.1	0.5	i
N#C/C(=C\c1c(N2CCN(Cc3ccccc3)CC2)nc2ccccn2c1=O)S(=O)(=O)c1ccccc1	3.5	8.5	0.2	7.5	0.0	0.692	-0.3	-2.2	7.2	i

An excerpt of these results, with values under each structure:
Results follow in this order: UCH37 inh	MLL AF4-AF9 inh	Ecoli rRNA inh	Ecoli rRNA inh OD600	Ecoli rRNA inh RFP	E coli growth	A1 inh	T cruzi repl	Beta cell apopt	FGF22 binding
COc1ccc(C(=O)Nc2ccc(F)cc2F)cc1OC
    3.5	nt	nt	nt	nt	0.672	-1.8	-5.8	4.9	nt
CCc1ccc(C(=O)O)cc1
    3.7	1.1	13.9	16.2	2.3	0.681	2.0	-25.5	0.9	i
